Tgondii IFNg: T. gondii growth inhibition with IFN-gamma, primary screen, cell-based | actives 3.8% (n = 69,000) | activity change, negative = inhibition, %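 (about 20 µM by stock and volumes)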 | Toxoplasma gondii growth in IFN-gamma-treated host cells; hits give low values; reference of the scale not given here;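 active means below -70%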;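 further: host cells are HeLa cells infected with Toxoplasma gondii; parasite growth read as luciferase light; one replicate is shown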
An asterisk follows results filed as active; i = inactive; & = joins results of further samples. Some of the compounds tested (hit frequency here may not be typical).

SMILES | Tgondii IFNg
Cc1occc1C(=O)NC1CCC2(CCC(=O)N2CC2CC2)CC1 (stereo not drawn) | 56
COc1ccccc1NC(=O)CN1C(=O)CCc2cc(S(=O)(=O)N3CCOCC3)ccc21 | 45
O=c1[nH]c(=O)n([C@H]2C[C@H](O)[C@@H](CO)O2)cc1I | 21
OC1CCN(c2ccnc(N3CCN(C/C=C/c4ccccc4)CC3)n2)CC1 | -3
CSc1ccc(-c2nc3c([nH]2)c(=O)n(C)c(=O)n3C)cc1 | 15
CN1C(=O)c2cc(NC(=O)NCc3ccccc3)ccc2OC[C@H]2O[C@@H](CC(=O)NCC3CCCCC3)CC[C@H]21 | -54
Cc1cccc(C2=NC3(CCN(CC(=O)Nc4ccc(F)cc4F)CC3)NC2=O)c1 | 23
O=C(NC12CC3CC(CC(O)(C3)C1)C2)c1cccc2ccnn12 | 6
CCCN1C(=O)CCc2cc(NS(=O)(=O)c3cccs3)ccc21 | 5
COc1ccc(CCNC(=O)CC(c2ccccc2)c2cccc(C)c2O)cc1OC (stereo not drawn) | 23
Cc1noc(C)c1NC(=O)Nc1ccc2c(c1)C(=O)N(C)[C@H]1CC[C@H](CC(=O)N[C@H]3CCN(Cc4ccccc4)C3)O[C@@H]1CO2 | 5
CCCOC(=O)N1CCC(c2nn(C)c(=O)n2Cc2ccccc2)CC1 | -1
C[C@H](CO)N1C[C@H](C)[C@@H](CN(C)S(=O)(=O)c2ccc(F)cc2)Oc2ccc(NS(=O)(=O)c3cn(C)cn3)cc2C1=O | 12
C[C@@H]1CN([C@@H](C)CO)C(=O)c2cc(NS(=O)(=O)c3ccc(Cl)cc3)ccc2O[C@@H](C)CCCCO[C@@H]1CN(C)Cc1ccncc1 | -113*
CO[C@@H]1CN(C)C(=O)c2cc(NS(=O)(=O)c3cn(C)cn3)ccc2OC[C@@H](C)NC[C@@H]1C | -13
CCC1CN(C(=O)c2coc3ccccc23)CCC(=O)N1Cc1ccccc1 (stereo not drawn) | -3
O=C1CC(CS(=O)(=O)c2ccc(C(F)(F)F)cn2)=NN1c1ccccc1 | -24
CCN1CCN(C(=S)NCCCOC)CC1 | -32
Cn1ccc(C(=O)N2CC[C@@H]3OCCN(S(C)(=O)=O)[C@@H]3C2)n1 | 19
COc1ccc(C#Cc2ccc([C@@H]3[C@H](CO)N4CCCCN(C)C[C@@H]34)cc2)cc1 | 31
O=C1C(Cc2c[nH]c3ccccc23)NC(=S)N1Cc1ccccc1 (stereo not drawn) | 52
O=C(N1CC(c2cccnc2)C1)C1(c2ccc(F)cc2)CCOCC1 | -36
O=C(NC[C@H]1[C@H](c2ccccc2)[C@@H](CO)N1Cc1ccccn1)C1CCCC1 | 24
Cc1nc(C(=O)N2CCCC2c2cc(C(C)C)on2)cs1 (stereo not drawn) | -49
CCc1ccc(-n2cc3c(=O)n(C)c(=O)n(C)c3c2)cc1 | -62
Cn1cc(/C=C2\C(=O)Nc3cccnc32)c2ccccc21 | 38
COc1cc2c(cc1-c1nccn1C(C)c1nc(C)cs1)CCC2 (stereo not drawn) | 6
O=C(O)CC/C=C\C[C@@H]1CO[C@H](c2ccccc2Cl)O[C@@H]1c1ccccc1O | 10
Cc1oc(C2CCN(C(=O)c3cc(F)ccc3F)CC2)nc1C(=O)N1CCCC1 | 36
Fc1ccc(OCc2nnc3sc(-c4cnccn4)nn23)cc1 | -29
Cc1ccc(C(=O)N2CC3(C(C)C)CN(C(=O)c4ccc(C)cc4)CC(C(C)C)(C2)C3=O)cc1 | 5
O=c1n(CN2CCOCC2)c2cccnc2n1Cc1ccco1 | -7
Nc1ncnc2c1nc(N1CCCCC1)n2[C@H]1O[C@@H](CO)[C@H](O)[C@@H]1O | -16
Clc1ccc(CNc2nc(-c3nnc(-c4ccccc4)o3)nc3ccccc23)cc1 | 161
CNC(=O)N1C[C@H]2C[C@H](C(=O)Nc3ccc4c(c3)OCO4)[C@@H](C1)O2 | 9
CN(C)CCC1CN(c2nc(C(N)=O)cs2)CCO1 (stereo not drawn) | -48
CCC(=O)Nc1cccc(C(=O)NCCCn2ccc3ccccc32)c1 | 5
COc1ccc(CN2CCN3CCN(C)C(=O)C3C2)cc1Cn1cncn1 (stereo not drawn) | 18
O=C1CCCC/C1=N\Nc1ccc(N2CCCCC2)cc1 | 57
c1ccc(-c2nc(N3CCC4(CCCO4)CC3)no2)cc1 | 292
CC(C)CN1[C@@H]2CCN(c3ncc(F)cn3)CC[C@@H]2Oc2ccccc2S1(=O)=O | -1
O=C(c1cccc(F)c1)N1CCC2(CC1)Nc1ccc(Cl)cc1-n1cccc12 | -63
CCN(Cc1cccc(C(=O)Nc2cc(C)nn2C)c1)CC1CCCO1 (stereo not drawn) | -47
CCOc1ccccc1NC(=O)C(=O)NCCc1sc(-c2ccc(Cl)cc2)nc1C | 107
COc1cccc(CNC(=O)C[C@@H]2CC[C@@H]3[C@@H](COc4ccc(NC(=O)c5cccs5)cc4C(=O)N3C)O2)c1 | 9
COCCN1C[C@@H]2CN(C(=O)c3ccncc3)C[C@H]2C1=O | 0
O=C(C1CCCCC1)N1CCC2(CC1)Nc1ccc(Cl)cc1-n1cccc12 | -85*
CO[C@H](CN(C)S(=O)(=O)c1ccc(C)cc1)[C@@H](C)CN(C(=O)Nc1ccccc1F)[C@H](C)CO | 38
COCC(NC1CCN(c2cccc(C)c2C)CC1)c1ccnn1C (stereo not drawn) | -7
Cc1ccc2[nH]cc(CCN3CC(C(=O)Nc4nnc(C(C)(C)C)s4)CC3=O)c2c1 (stereo not drawn) | 134
CCN1CCN(C(=O)Cn2nc(C)nc2C)C(Cc2cccc(-c3cccs3)c2)C1=O (stereo not drawn) | -23
O=c1cc(CSc2nc3ccccc3o2)[nH]c2nc3ccccc3n12 | -97*
Cc1oc(-c2ccc(C(C)C)cc2)nc1CSc1nc2c(=O)[nH]cnc2n1C | -5
COc1ccc(S(=O)(=O)N(C)Cc2nc(C)ncc2-c2cc(C)no2)cc1 | 83
CCOc1ccccc1CNC(=O)C1=C(C)C(=O)OC12CCN(C(C)=O)CC2 | 53
CCn1cc(NC(=O)c2cccc(CN3CCC(N(C)C(C)=O)C3)c2)nn1 (stereo not drawn) | -7
CCNC[C@@H]1[C@H](c2ccccc2)[C@@H](CO)N1C(=O)Cc1ccccn1 | -36
Cn1c(=O)[nH]c(=O)c2c1nc(N1CCCCCC1)n2CC(O)COc1ccccc1 (stereo not drawn) | 18
OC1(CN2CCCC2)CCN(C2CCC3(CCNCC3)CC2)CC1 | 7
CN(Cc1nncn1-c1ccc(Cl)cc1)S(C)(=O)=O | 31

A different layout for some results above.
Cc1ccc2[nH]cc(CCN3CC(C(=O)Nc4nnc(C(C)(C)C)s4)CC3=O)c2c1 (stereo not drawn)
  Tgondii IFNg = 134

CCN1CCN(C(=O)Cn2nc(C)nc2C)C(Cc2cccc(-c3cccs3)c2)C1=O (stereo not drawn)
  Tgondii IFNg = -23

O=c1cc(CSc2nc3ccccc3o2)[nH]c2nc3ccccc3n12
  Tgondii IFNg = -97*

Later entries
SMILES | Tgondii IFNg
CN(CCn1ccc2ccccc21)C(=O)c1cn(-c2ccccc2)nn1 | 2
Cc1[nH]c(/C=C2\C(=O)Nc3ccc(S(=O)(=O)N(C)c4cccc(Cl)c4)cc32)c(C)c1C(=O)N1CCN(C)CC1 | -64
O=C(C1CCCO1)N1CCc2c(nc(-c3ccccn3)[nH]c2=O)C1 (stereo not drawn) | 5
C[C@@H]1CN([C@H](C)CO)C(=O)CCCn2nncc2CO[C@@H]1CN(C)Cc1ccc2c(c1)OCCN2C | 53
CCOc1ccccc1CNC(=O)CN1C(=O)CCc2cc(Br)ccc21 | 160
Cc1nsc(NC(=O)N2CCC(n3c(=O)[nH]c4ccccc43)CC2)n1 | 7
CC1(CC(=O)Nc2ccccc2)NC(=S)N(c2ccccc2)N1 (stereo not drawn) | 21
CCN1CCc2onc(CN3CCCC3)c2C1 | -3
CN(C)CC(=O)N1CCC(F)(F)C2(CCN(c3ncccc3F)C2)C1 (stereo not drawn) | 25
COCc1nn(C(C)C)c2c1CCN(C(=O)c1csnn1)C2 | 63
N#C[C@@H]1[C@@H](c2ccccc2-c2ccccc2F)[C@@H](CO)N1C(=O)C1CCC1 | 12
Cc1nsc(NC(=O)NC2CCN(Cc3cccnc3)CC2)n1 | -64
COc1ccc(N2CCCN(CC3CCN(C(=O)c4oc(C)nc4C)CC3)CC2)cc1 | 3
COc1ccc(-c2nc(C)c(CCNC(=O)C(=O)Nc3cccc(C)c3C)s2)cc1OC | -33
C1CCC2(CC1)CCNCC2 | 10
COC(=O)c1sccc1-c1ccc(CN2CCCc3cc(OC)ccc32)o1 | 215
CC1(C)NC(=O)N(CC(O)Cn2c3ccccc3c3ccccc32)C1=O (stereo not drawn) | -2
CO[C@H]1CC(O[C@@H]2/C(C)=C/C[C@@H]3C[C@@H](C[C@]4(CC[C@H](C)[C@@H](C5CCCCC5)O4)O3)OC(=O)[C@@H]3C=C(C)/C(=N/O)[C@H]4OC/C(=C\C=C\[C@@H]2C)[C@]43O)O[C@@H](C)C1O (stereo partly drawn) | -80*
CN1CC2(CCN(C(=O)CCC(=O)c3ccc(F)cc3)C2)OC1=O (stereo not drawn) | 3
CC1CCN(S(=O)(=O)c2ccc3c(ccc(=O)n3CC(=O)NC3CC3)c2)CC1 | -5
COc1cccc(CC2CN(C(=O)c3c(C)[nH]c4c3C(=O)CCC4)CCO2)c1 (stereo not drawn) | -41
Cc1ccc(NS(=O)(=O)c2ccc3[nH]c(=O)ccc3c2)cc1N(C)C | i
CC(=O)N1CCO[C@]2(CCC[C@H]2COCC(=O)N2CCCC2)C1 | -69
Cc1ccc(S(=O)(=O)NCC2(c3ccccc3F)CCOCC2)s1 | 4
Cc1c(Cl)cccc1NC(=O)CC(=O)NCCc1ccccn1 | 156
COCCn1cc(C(=O)NCCc2cccc(Cl)c2)c(=O)c(C(=O)N2CCCCCCC2)c1 | -2
Cc1[nH]cnc1-c1nccn1-c1ccc2cn[nH]c2c1 | 5
COc1ccc(NC(=O)Nc2ccc(-c3nc(-c4cc(C)ccc4C)co3)cc2)c(OC)c1 | -17
Cc1cccc(C2=NC3(CCN(Cc4ccccc4C)CC3)NC2=O)c1 | -54
COc1ccc(-c2nc(C)c(CCNC(=O)c3cc(OC)c(OC)c(OC)c3)s2)cc1 | 225
Cc1cc(CNC(=O)c2ccc(=O)[nH]n2)c2[nH]c(-c3ccccc3)c(C)c2c1 | 55
CO[C@@H](CN(C)Cc1ccc2c(c1)OCO2)[C@@H](C)CN(C(=O)Nc1ccc(F)cc1)[C@H](C)CO | 15
CCCCCCCCCCC(C)(C)C(=O)Nc1c(OC)cc(OC)cc1OC | 2
O=C(NCc1cc(F)cc(F)c1)c1c(O)c2cccnc2n(-c2cccc(F)c2)c1=O | 106
C[C@H](Cn1nnc2ccccc21)NC(=O)c1ccco1 | 10
COc1ccc(C2CC3CC(c4ccccc4)N2O3)cc1 (stereo not drawn) | 83
CC(C)NC(=O)N1[C@@H](CO)[C@H](c2ccccc2)[C@@H]1CN(C)C(=O)c1cccnc1 | 12
CCN1CCOCC2(CCCN(C(=O)c3ccc4ccccc4n3)C2)C1 (stereo not drawn) | 2
O=C(Cn1c(Cc2ccccc2)nc2ccccc2c1=O)NCc1ccccc1 | -26
O=C(O)[C@H]1C[C@H](C(=O)N2CCCC2)CN(Cc2ccc3c(c2)OCCO3)C1 | 1

Compounds listed so far with a COOH group:
SMILES | Tgondii IFNg
O=C(O)CC/C=C\C[C@@H]1CO[C@H](c2ccccc2Cl)O[C@@H]1c1ccccc1O | 10
O=C(O)[C@H]1C[C@H](C(=O)N2CCCC2)CN(Cc2ccc3c(c2)OCCO3)C1 | 1

(cont.)
SMILES | Tgondii IFNg
COC(=O)c1sccc1OC(=O)c1nn(-c2ccccc2)nc1C | -9
CCCCOc1cc(C(=O)NCCN(CC)CC)c2ccccc2n1 | -28&-47&-7&-2
O=C(C1CCc2ccccc2O1)N(CCO)Cc1cccs1 (stereo not drawn) | 4
CCC(=O)NC[C@H]1N[C@H](CO)[C@@H]1c1ccc(-c2cccnc2)cc1 | 3
Cc1oc(-c2ccc(NC(=O)c3ccccc3)cc2)nc1Cn1cccn1 | 20
C=CCn1c(Cc2ccc(OC)cc2)nnc1SCC(=O)NC1=NCCS1 | -14
CCOC(=O)c1[nH]ncc1-c1ccc(Cl)cc1Cl | -95*
COc1cccc(NC(=O)NCC2CCCN(C3CCOCC3)C2)c1 (stereo not drawn) | -8
COC(=O)[C@@H]1C[C@H](NC(=O)CCN2Cc3ccccc3C2=O)CN1C | -48
Cc1cccc(-c2nc(Cn3nnc(-c4nc(-c5ccccc5)no4)c3C)c(C)o2)c1 | -9
CCN1CCC(n2nccc2NC(=O)CN2C(=O)COc3c(Cl)cccc32)CC1 | 0
CSc1nnc(SCC(=O)N2CCC(C(F)(F)F)CC2)s1 | -11
COc1ccc(CN2[C@H](CO)[C@@H]3c4ccccc4NC[C@@H]32)cc1 | -49
Cc1ccccc1-c1cc(O)c2c(c1)CN(CCc1cn[nH]c1)CCO2 | -11
CCNc1nc(C)c(C(=O)N(C)Cc2nc3ccccc3n2C)s1 | 6
CN1CCN(C)C2(CCN(C(=O)c3ccn[nH]3)CC2)C1=O | 21
O=C(CC(F)(F)F)N1C[C@H]2[C@@H](c3ccccc31)[C@@H](CO)N2Cc1cccnc1 | -6

Random excerpt: 2 entries already listed.
SMILES | Tgondii IFNg
CN1CCN(C)C2(CCN(C(=O)c3ccn[nH]3)CC2)C1=O | 21
COC(=O)[C@@H]1C[C@H](NC(=O)CCN2Cc3ccccc3C2=O)CN1C | -48

Compound activity from PubChem BioAssay.
